AID504770 – E. coli YBA685 growth inhibition, screen for V. cholerae RctB inhibitors; E. coli YBA685 rctB-dependent plasmid, OD600 growth, 3 h; stronger effect = lower value; z-score (no concentration beside the values); actives 0.27% (n = 130,000);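 active = z-score under -2 on both plates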;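 note: wells of about 30 µL received 100 nL stock; score is relative to mean and SD of the test wells; the first replicate is given; strong numbers were not always called active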
Ba CapD inh – CapD enzyme inhibition. purified CapD enzyme, fluorescence intensity read-out; stronger effect = lower value; some hits fall short of the stated cut. z-score (no concentration beside the values). actives 0.23% (n = 140,000). AID 492967;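 active = z-score under -4 in either of two replicates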;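 note: stock transfer was 100 nL into about 40 µL; score is relative to mean and spread of the plate; one replicate is shown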
Starred values were filed as active, the others as inactive; · = no result given. Not all compounds are listed (hit frequency here may not be typical).

SMILES | AID504770 | Ba CapD inh
O=C1NC(=S)N(c2ccc(Cl)cc2)C(=O)/C1=C/c1cc2c(cc1Br)OCO2 | · | 0.47
COC(=O)c1cccc(-n2c(C)cc(C=C3C(=O)N(C)C(=S)N(C)C3=O)c2C)c1C | · | -0.48
CCN1C(=O)c2ccccc2S(=O)c2ccc(C(=O)NCC(OC)OC)cc21 (centres undefined) | 0.25 | 1.33
COc1ccccc1NC(=S)N1CCOCC1 | · | -0.04
O=C(CNC(=O)c1ccc(-c2ccccc2)cc1)OCc1nnc(-c2ccccc2)o1 | -0.7 | ·
Cc1cc(N)c2ncccc2c1 | -0.35 | ·
CC(C)CNC(=O)c1ccccc1NC(=O)c1ccco1 | 1.75 | ·
Cc1ccccc1-c1nc(C#N)c(N2CCN(c3ccccc3)CC2)o1 | 0.45 | 5.44
COc1ccc(OC)c(NC(=O)c2c(NCc3ccc(OC)c(OC)c3)sc3c2CCCCC3)c1 | · | 0.92
COc1cc(Nc2nc(SCc3cc(=O)n4ccccc4n3)nc3ccccc23)cc(OC)c1 | · | -0.735
CCOc1ccc(N=C=S)cc1 | -0.1 | ·
COc1cc(/C=C2\N=C(c3ccccc3)N(c3ccc(Br)cc3)C2=O)cc(OC)c1OC | · | -0.39
COc1ccc(C2=C[N+](=O)C(C)(C)C(C)(C)N2[O-])cc1 | -0.55 | -3.58
COc1cc(/C=N/NC(=O)c2ccc([N+](=O)[O-])o2)cc2c1OCO2 | · | -1.45
Cc1nc2ncnn2c(C)c1CCC(=O)N(Cc1cccnc1)c1ccc2c(c1)OCO2 | 1.45 | ·
C=C1C2(C(=O)Nc3ccccc3OC)CCC(C2)C1(C)C (centres undefined) | -0.25 | 0.26
CCCC(c1nnnn1Cc1ccccc1)N1CCN(c2ccccc2)CC1 (centres undefined) | -0.2 | ·
C/C(=N\NC(N)N)C1CCCCCCCCCCC1 | -1 | ·
O=C(CN1C(=O)CCC1=O)Nc1ccccc1Oc1ccccc1 | -0.15 | -0.01
Cc1cc(=O)[nH]c(SCC(=O)N2CCNC2=O)c1C#N | 0.05 | ·
CC1=CC(c2ccc(Cl)cc2)n2nc(N3C(=O)c4ccccc4C3=O)nc2N1 (centres undefined) | 0.5 | 0.6
NC(=NCCc1c[nH]c2ccccc12)NC(=O)c1ccccc1 | -0.65 | -0.01
CCOc1ccc(S(=O)(=O)Nc2ccc(S(=O)(=O)N3CCOCC3)cc2)cc1 | 0.2 | 0.015
O=C(COc1ccccc1)Nc1ccccc1N1CCN(c2ccccc2)CC1 | 0.2 | ·
Cc1ccc(-c2nc3cc(Cl)c(Cl)cc3nc2-c2ccc(C)cc2)cc1 | · | -0.225
Next part.
SMILES | AID504770 | Ba CapD inh
COc1ccc(C(=O)Nc2cccc3ncccc23)cc1OC | 0.2 | ·
O=C(CSC1=NCCS1)Nc1nc(-c2ccc(Cl)cc2)cs1 | -1.2 | ·
CCOc1ccccc1NC(=O)C(CC)Sc1nc2ccsc2c(=O)n1Cc1ccccn1 (centres undefined) | -0.95 | -0.375
CC1=NN(C(=O)c2cccnc2)C(O)(c2ccccc2)C1 (centres undefined) | 0.6 | ·
Cc1c(C(=O)O)ncn1Cc1ccc(Cl)cc1 | · | 0.05
O=C1NC(=O)C2(CCc3ccccc32)N1 (centres undefined) | -2.55 | ·
CCc1nnc(SCCSc2nnc(CC)n2N)n1N | 1.55 | -0.095
Cc1c(Cl)cccc1NC(=O)CN1C(=O)C2(OCCCO2)c2ccccc21 | -0.45 | -1.25
Cc1ccccc1C(=O)NNC(=O)OCC#Cc1ccccc1 | · | -0.665
CSc1nc(CSc2ccc(C)cc2)nc(N)c1C#N | -0.25 | 0.75
CN(C)c1cc(-c2ccccc2)nc(-c2ccccc2)n1 | 2.35 | 0.91
COC(=O)C1C(=O)NC(SCC(=O)Nc2ccc(OC)cc2)=C(C#N)C1c1ccc(C(C)C)cc1 (centres undefined) | · | 0.085
CC1(C)CC(=O)C2=C(C1)N(c1cccc(Cl)c1)C(N)=C(C#N)C2c1ccc2c(c1)OCO2 (centres undefined) | · | 2.76
O=C(O)CN1C(=O)NC2NC(=O)NC21 (centres undefined) | · | -0.94
CCOC(=O)c1ccc(CNS(=O)(=O)c2cccc(S(=O)(=O)c3ccc(Cl)cc3)c2)o1 | -0.3 | -0.63
CCC1=C(c2ccc(C)cc2)S(=O)(=O)NC1=NCC(=O)O | -0.55 | -1.46
CCOC(=O)C(C)Oc1cc2oc(=O)c3c(c2cc1CC)CCCC3 (centres undefined) | · | 42.7
COc1ccc(OC)c(CCNC(=O)c2ccc(CS(=O)(=O)c3c(Cl)cccc3Cl)o2)c1 | -0.75 | -0.985
Oc1ccc(-c2ccc(I)cc2)cc1 | -0.35 | ·
Cc1ccc(CSc2nnc(-c3cc4c(s3)-c3ccccc3CC4)o2)cc1 | · | 36.5
CC(=O)OC1=C(C)C(c2ccccc2)N(C(C)=O)C(c2ccccc2)C1C (centres undefined) | -0.95 | 0.38
Cc1noc(C)c1Cc1c(Cl)cccc1Cl | -0.45 | 0.315
COC(=O)COc1ccc(S(=O)(=O)N2CCN(c3cc(Cl)ccc3C)CC2)cc1 | 1.55 | 0.455
O=C1NN=CC1CCCN=Cc1cc(Cl)cc(Cl)c1O (centres undefined) | · | 0.35
O=C(NCCN1CCOCC1)N(c1ccccc1)c1ccccc1 | -1.05 | -0.095
Further entries follow.
SMILES | AID504770 | Ba CapD inh
COc1ccc(C2CC(=O)C3=C(C2)NC(C)=C(C(=O)OC(C)C)C3c2ccc(OC)cc2OC)cc1 (centres undefined) | · | 7.22
CCN1C(=O)c2ccc(C(=O)Nc3ccc(OC)cc3)cc2C1=O | 1.75 | -0.57
CC(C)c1cccc(C(C)C)c1NC(=O)CCCN1C(=O)NC2(CCCC2)C1=O | -0.25 | ·
CCOC(=O)c1cnc(SC2CC(=O)N(c3ccccc3)C2=O)nc1N (centres undefined) | -0.45 | ·
Cc1ccccc1Nc1nc(N)nc(COC(=O)CC2Sc3ccccc3NC2=O)n1 (centres undefined) | 2.1 | ·
Cc1ccc2nc(-c3ccccc3F)oc(=O)c2c1 | -1.25 | -0.585
Cn1ccnc1SCC(=O)N1c2ccccc2C(C)(c2ccc(Cl)cc2)CC1(C)C (centres undefined) | 0.15 | 0.095
OC(CSc1c(Cl)cccc1Cl)(c1ccccc1)c1ccccc1 | · | -0.54
OC(CN1CCN(c2ccccc2F)CC1)c1ccc2[nH]ccc2c1 (centres undefined) | 0.15 | 0.395
CC(=NCCc1c(C)[nH]c2ccc(OC(F)(F)F)cc12)C1=C(O)CC(c2ccccc2)CC1=O (centres undefined) | 0 | 0.84
COCCN1C(=O)c2ccccc2C(C(=O)NCCCN2CCCC2)C1c1ccc(F)cc1 (centres undefined) | 0.05 | -0.37
CC(=O)c1cc(-c2ccccc2)c(C(F)(F)F)s1 | · | 0.2
Cc1cc(NC(=O)c2ccccc2)n(C(C)(C)C)n1 | -0.45 | -0.835
CCCSc1nc2ccccc2[nH]1 | 0.8 | -0.96
O=C(OCCOCCO)c1ccccc1Nc1cccc(C(F)(F)F)c1 | · | -0.085
O=C(NCc1ccco1)c1ccc2c(c1)C(=O)N(Cc1ccccc1)C2=O | -0.4 | 0.54
CC(C)c1ccc(-n2c(CCC(=O)O)ccc2-c2cccs2)cc1 | -0.1 | 63.3
Cc1ccc(/C=N/NC(=O)CSc2nc3ccccc3n2Cc2ccccc2)o1 | 2.6 | -0.375
CN1CCC(=NNC(=O)c2ccc(CN3C(=O)c4cccc5cccc3c45)cc2)CC1 | 1.7 | ·
CSC1=NC=C(C#N)C2=NC(C)(c3ccc(Cl)c(Cl)c3)NN12 (centres undefined) | 0.05 | 0.105
CC[N+]1(Cc2ccccc2)C2=C(CN(C)CC2)c2ccccc21 (centres undefined) | -1.05 | -0.96
CCCN1CCC(N(C2CC2)S(=O)(=O)c2ccc(NS(=O)(=O)c3cccc(C(F)(F)F)c3)cc2)CC1 | · | -0.375
O=C(c1ccc(-c2ccccc2)cc1)N1CCN(C(=O)c2ccc3cc[nH]c3c2)CC1 | · | 0.515
COC(=O)c1ccc2cnccc2n1 | · | -0.81
CC1CCCN(CCCNS(=O)(=O)c2csc(C(N)=O)c2)C1 (centres undefined) | 0.15 | -0.235
(cont.)
SMILES | AID504770 | Ba CapD inh
Cc1cc(C)c(NC(=O)C(C)(C)C)c(C)c1 | -0.35 | 0.83
COc1ccc(NC(CC(=O)C2CC2)c2ccccc2)cc1 (centres undefined) | -0.4 | -0.245
O=c1nc2n(-c3cccc(Br)c3)c3ccccc3cc-2c(=O)[nH]1 | · | -0.285
CCOC(=O)c1c(CN2CCN(Cc3ccccc3)CC2)n(-c2ccccc2)c2cc(Br)c(O)cc12 | · | 0.02
O=C(CSc1ccccn1)NC12CC3CC(CC(C3)C1)C2 | -0.2 | -0.67
CSC1=NC2(CCCCCC2)Cc2ccccc21 | -0.25 | 0.48
Cc1nnc(NCc2ccccc2)n(N)c1=O | -1.15 | 6.18
CN(C)CCN1C(=O)C2C3C=CC(C2C1=O)C1C2C(=O)N(CCN(C)C)C(=O)C2C31 (centres undefined) | · | -0.04
CCOc1cccc2c1OC(c1ccc(OC)cc1)N1N=C(c3cccc(OC)c3)CC21 (centres undefined) | · | -0.315
CCN(CC)S(=O)(=O)c1ccc2c(c1)oc(=O)c1cc(S(=O)(=O)N(CC)CC)ccc12 | 1.5 | ·
CCOC(=O)c1ccc(-c2ccc(/C=C(/C#N)C(=O)Nc3ccc(C)cc3C)o2)cc1 | -0.85 | -0.815
CCOC(=O)CSc1nnc2sc3ccccc3n12 | 2.05 | -0.64
Cc1nc(SCC(=O)c2cc3ccccc3oc2=O)c(C#N)c(C)c1C(=O)Nc1ccccc1 | · | -0.21
CCCCCCCCc1ccc(-c2ccc(C(=O)OC(C)C(=O)OC(C)C)cc2)cc1 (centres undefined) | · | 0.33
O=C1c2ccccc2C(NCc2cccnc2)N1Cc1cccnc1 (centres undefined) | -0.6 | 0.235
Cn1nc(-c2ccccc2)c(C#N)c1S(C)(=O)=O | 0.6 | 0.015
O=C(CCOc1ccc(F)cc1)Nc1nccs1 | -0.6 | -0.09
O=C(NC1CCSc2ccccc21)C1CCN(S(=O)(=O)c2ccccc2)CC1 (centres undefined) | -0.15 | ·
CC(=O)Nc1cccc(C(C)(C)C)c1 | -0.7 | -0.095
CCN(CC)C(=S)SCc1ncc(-c2ccccc2)o1 | -0.75 | ·
Cc1cccc(NC(=O)c2cc(N3C(=O)C=CC3=O)ccc2Cl)c1 | -0.95 | -1.54
Cc1c(C(=O)OCC(N)=O)sc2nc(-c3cccs3)cc(C(F)(F)F)c12 | 0.25 | ·
Fc1cccc(NCc2cccn2-c2nnc(N3CCCC3)s2)c1 | 0.05 | 0.54
O=C(CC(C(=O)N1CCc2ccccc21)C(=O)N1CCc2ccccc21)c1ccccc1 | -0.45 | 0.21
O=C(NNC(=O)c1ccc(O)cc1)OCc1ccc(F)cc1Cl | · | -0.37

One compound at a time (already shown). Screens in order: AID504770	Ba CapD inh
CCOC(=O)c1ccc(-c2ccc(/C=C(/C#N)C(=O)Nc3ccc(C)cc3C)o2)cc1 is entered as -0.85	-0.815
O=C(CCOc1ccc(F)cc1)Nc1nccs1 is entered as -0.6	-0.09
Cn1nc(-c2ccccc2)c(C#N)c1S(C)(=O)=O is entered as 0.6	0.015
Cc1c(C(=O)OCC(N)=O)sc2nc(-c3cccs3)cc(C(F)(F)F)c12 is entered as 0.25	·
CCCCCCCCc1ccc(-c2ccc(C(=O)OC(C)C(=O)OC(C)C)cc2)cc1 (centres undefined) is entered as ·	0.33

Following part
SMILES | AID504770 | Ba CapD inh
O=C1NC(=Nc2cccc(C(=O)O)c2)S/C1=C/c1ccc(-c2ccc(C(=O)O)cc2)o1 | -1.55 | 4.96
CCN(CC)S(=O)(=O)c1ccc(NC(=O)COc2ccc3c(C)cc(=O)oc3c2)cc1 | -0.8 | ·
N#CCC(=O)c1ccc(Cl)cc1 | · | 0.13
CC(C)OC(=O)c1ccc(-c2ccc(/C=C3\C(=O)N(c4ccc(S(N)(=O)=O)cc4)N=C3C(F)(F)F)o2)cc1 | · | 0.315
O=C(CCSc1c(Cl)cccc1Cl)c1ccco1 | -1.4 | 0.02
O=c1oc2ccccc2nc1/C=C(\O)c1ccccc1 | 1.9 | -0.55
CC1CCc2cc(F)ccc2N1C(=O)C12CCC(c3nc(C#N)c(C#N)nc31)C2(C)C (centres undefined) | -0.6 | -0.3
COc1cccc2cc(C(=O)Nc3ccccc3)c(=O)oc12 | -0.25 | 0.165
CCOC(=O)C1CC2CCCN2C12C(=O)N(Cc1ccccc1)c1ccccc12 (centres undefined) | -0.2 | 0.775
O=S(=O)(Cc1ccc(F)cc1)Cc1noc(-c2ccc(OC(F)(F)F)cc2)n1 | 0.65 | 0.58
O/N=C/c1cc2ccccc2nc1Cl | -0.5 | ·
O=C(Cn1nnc(-c2cccc(C(F)(F)F)c2)n1)NC(=O)NC1CCCC1 | -0.45 | ·
CCC1C(=O)n2nc(-c3ccccc3)cc2N=C1C (centres undefined) | 1.15 | 1.75

Among those listed so far, 8 contain a CF3 group:
SMILES | AID504770 | Ba CapD inh
CC(=NCCc1c(C)[nH]c2ccc(OC(F)(F)F)cc12)C1=C(O)CC(c2ccccc2)CC1=O (centres undefined) | 0 | 0.84
CC(=O)c1cc(-c2ccccc2)c(C(F)(F)F)s1 | · | 0.2
O=C(OCCOCCO)c1ccccc1Nc1cccc(C(F)(F)F)c1 | · | -0.085
CCCN1CCC(N(C2CC2)S(=O)(=O)c2ccc(NS(=O)(=O)c3cccc(C(F)(F)F)c3)cc2)CC1 | · | -0.375
Cc1c(C(=O)OCC(N)=O)sc2nc(-c3cccs3)cc(C(F)(F)F)c12 | 0.25 | ·
CC(C)OC(=O)c1ccc(-c2ccc(/C=C3\C(=O)N(c4ccc(S(N)(=O)=O)cc4)N=C3C(F)(F)F)o2)cc1 | · | 0.315
O=S(=O)(Cc1ccc(F)cc1)Cc1noc(-c2ccc(OC(F)(F)F)cc2)n1 | 0.65 | 0.58
O=C(Cn1nnc(-c2cccc(C(F)(F)F)c2)n1)NC(=O)NC1CCCC1 | -0.45 | ·

Screens (PubChem)
